Bioassay records (PubChem)
TRPML1 inh – qHTS for Inhibitors of the Human Mucolipin Transient Receptor Potential 1 (TRPML1) | TRPML1-inducible cells, Ca2+ dye fluorescence, FDSS; active compounds read low; inhibition of EC80 agonist-evoked calcium signal | activity change, negative = inhibition, % (no concentration beside the values) | 390,000 tested, 0.02% active | AID 624415, 2012; in the data active means activity change below about -50%; inconclusive means about -30% to -50%; inactive means above about -30%;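 also: stimulus is agonist 54-4 at its EC80 concentration; % is scaled to controls: 0 for no effect and ±100 for the full control effect; compound concentration not given in the record; the text of the record puts the active cut at -80%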
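TRPML1-DL cells, Tet-induced overnight (~16 h, 37 °C) at 1,500 cells/well, were loaded with Ca8 no-wash dye plus quencher for 45-90 min at room temperature. Compounds were pinned during FDSS kinetic reading; agonist 54-4 at EC80 (4 uM final) then added.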
TRPML1 agonist – qHTS for Agonists of the Human Mucolipin Transient Receptor Potential 1 (TRPML1) | Mucolipin-1 (Homo sapiens), Q9GZU1 | TRPML1-expressing cells, Ca2+ dye fluorescence, FDSS; host cell line not named in the record; reference of the full effect not given here | activation, % (concentration not given with the values) | 410,000 tested, 0.12% active | AID 624414, 2012; in the data active = activation above about 50%; inconclusive = about 30% to 50%; inactive = below about 30%; also: 0% is about no effect; the text of the record puts the active cut at 80%
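Calcium fluorescence on an FDSS kinetic reader gave the read-out. Tet-induced TRPML1-DL cells were plated overnight, dye-loaded (Ca8 with quencher, 45-90 min, room temperature, dark), then read 110 s after compound addition, and again 110 s after 4uM final 54-4 (EC80).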
Six1-Eya2 inh – qHTS Assay for Inhibitors of the Six1/Eya2 Interaction. AlphaScreen GST-Six1/His-Eya2 binding, biochemical; active compounds read low; control for the full effect not named in the record. activity change, % (test concentration not listed). 360,000 tested, 0.56% active; in the data active = activity change below about -65%; inconclusive = about -30% to -65%; inactive = above about -30%; also: % is scaled to controls: 0 for no effect and ±100 for the full control effect
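AlphaScreen luminescence read after one hour at 37 °C in darkness. Pin-transferred compounds met GST-Six1 and His-Eya2 protein (5X stock 250 nM/500 nM) plus glutathione donor and Ni-chelate acceptor beads (5X, 50 ug/mL).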
D2 potentiator – Beta-Arrestin HTS for Positive Allosteric Modulators of the Human D2 Dopamine Receptor: Potentiators; D(2) dopamine receptor (Homo sapiens), P14416; DiscoveRx D2 beta-arrestin cells, luminescence, 90 min; 100% = 57 uM dopamine signal; potentiation, % (concentration not given with the values); 360,000 tested, 0.23% active; AID 624464, 2012; active = potentiation of 50% or more; inconclusive = 30% to 50%; inactive = 30% or less;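 also: compound concentration not given in the record; tested on top of an EC20 dose of dopamine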
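PathHunter D2 cells, attached overnight at 37 deg C, received compound in DMSO plus dopamine at EC20 (50 nM final) for 90 min at 37 deg C. Beta-arrestin recruitment was read as luminescence after 1 h with detection reagent at ambient temperature.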
CtBP-E1A inh – qHTS Assay for Inhibitors of the CtBP/E1A Interaction. CtBP / adenovirus E1A interaction (AlphaScreen). AlphaScreen GST-E1A/His-CtBP binding, 1536-well; active compounds read low; control for the full effect not named in the record. activity change, % (concentration not given with the values). 340,000 tested, 0.49% active. AID 651724, 2012; in the data active means activity change below about -65%; inconclusive means about -30% to -65%; inactive means above about -30%; also: % is scaled to controls: 0 for no effect and ±100 for the full control effect
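GST-E1A and His-tagged CtBP (125 nM each as 5X stock) were preincubated with pin-transferred compound for 2 h at 37 °C in the dark, then glutathione donor and nickel acceptor beads were added for 1 h before AlphaScreen reading.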
TRPV1 PAM – HTS Assay for Compounds that Act as Potentiators of the Vanilloid Receptor 1; AID 540277, 2011; Transient receptor potential cation channel subfamily V member 1 (Homo sapiens), Q8NER1; potentiation, % at 8.33 µM; TRPV1-expressing cells, Fluo-8 calcium influx, capsaicin EC20 potentiation; host cell line not named in the record; control for the full effect not named in the record; 320,000 tested, 0.02% active; active means potentiation above 80%; inconclusive means 30% to 80%; inactive means below 30%; also: 0% is about no effect
Target sequence (Q8NER1 whole entry, looked up): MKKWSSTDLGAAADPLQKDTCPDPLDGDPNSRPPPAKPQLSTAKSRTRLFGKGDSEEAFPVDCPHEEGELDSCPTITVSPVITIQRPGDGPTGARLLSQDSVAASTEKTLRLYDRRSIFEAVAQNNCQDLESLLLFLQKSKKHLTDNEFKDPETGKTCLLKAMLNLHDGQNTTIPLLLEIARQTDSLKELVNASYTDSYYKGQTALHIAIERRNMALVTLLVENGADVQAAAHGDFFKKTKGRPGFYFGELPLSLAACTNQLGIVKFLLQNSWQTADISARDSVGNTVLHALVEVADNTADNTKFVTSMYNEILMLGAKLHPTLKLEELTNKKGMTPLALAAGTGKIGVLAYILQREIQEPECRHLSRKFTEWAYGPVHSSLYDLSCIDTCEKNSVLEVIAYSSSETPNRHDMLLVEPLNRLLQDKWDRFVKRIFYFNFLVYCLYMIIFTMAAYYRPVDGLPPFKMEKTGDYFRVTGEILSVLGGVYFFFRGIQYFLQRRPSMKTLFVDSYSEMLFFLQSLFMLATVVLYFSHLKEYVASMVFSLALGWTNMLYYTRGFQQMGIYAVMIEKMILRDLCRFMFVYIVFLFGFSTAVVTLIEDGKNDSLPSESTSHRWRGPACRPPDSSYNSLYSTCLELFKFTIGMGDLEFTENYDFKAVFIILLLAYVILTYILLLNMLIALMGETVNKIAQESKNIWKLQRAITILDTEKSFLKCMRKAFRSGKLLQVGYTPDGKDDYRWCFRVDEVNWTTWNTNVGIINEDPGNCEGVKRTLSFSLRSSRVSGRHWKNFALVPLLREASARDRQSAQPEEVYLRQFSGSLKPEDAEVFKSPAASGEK
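TRPV1-expressing cells were cultured overnight at 35.5C and loaded with Fluo-8 calcium dye for 40 to 90 min at room temperature. After a 10 s baseline, compound was added and calcium influx was read kinetically for 3 min (ex 480/em 520 nm).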
The depositor's hits bear a star; ? = inconclusive; nt = not tested or not shown; & = joins results of further samples. Random draw from the library; 0.95% or so of the library scored in one or more.

SMILES	TRPML1 inh	TRPML1 agonist	Six1-Eya2 inh	D2 potentiator	CtBP-E1A inh	TRPV1 PAM
Cc1ccc(C(=O)OCC(=O)N2CCc3ccccc32)cc1	19	2.4	2	6	-2	12
COc1cc(C(=O)OCC(=O)N2CCC(Cc3ccccc3)CC2)cc(OC)c1OC	7	-0.1	-4	-4	1	4
Cc1cc(=O)oc2c1c(C)nn2-c1nn[nH]n1	-4	0.7	-17	-9	-23	3
CC12CN3CC(C)(CN(C1)C3c1ccc3c(c1)OCO3)C2O (stereo not given)	nt	nt	2	-9	-2	10
CCCCOc1cccc(C(=O)Nc2ccc(NC(=O)c3ccco3)cc2)c1	1	0.0	0	-1	-2	-4
CC(C)=CCCC(C)CN(C)CCc1ccccn1 (stereo not given)	23	-0.2	1	-19	-2	-7
O=[N+]([O-])c1cccc(S(=O)(=O)Nc2ccccn2)c1	-6	-0.1	6	-10	3	nt
O=C(c1ccc(Cl)cc1)N1CCN(c2ccnc3cc(Cl)ccc23)CC1	-8	2.3	-2	-5	1	-15
COc1cc2cnc(-c3ccccc3)c(-c3ccc([N+](=O)[O-])cc3)c2cc1OC	-15	2.5	-11	-1	nt	-2
O=C(O)C1=C(OCc2ccc(F)c(F)c2)C(=O)NCC1	4	-0.6	3	-2	0	-8
COc1ccc(C(=O)C2CCCN(Cc3cnc(N4CCCC4)s3)C2)cc1OC (stereo not given)	3	1.0	-1	-14	nt	7
CSc1nnc(-c2ccc(C(F)(F)F)cn2)o1	2	0.2	-1	-13	1	nt
CN(C)S(=O)(=O)c1cccc(NC(=O)CSc2nc3ccccc3[nH]2)c1	-2	1.1	0	-13	21	-6
CN(C)c1ccc(C(C[N+](=O)[O-])c2c(N)n(C)c(=O)n(C)c2=O)c(F)c1C#N (stereo not given)	10	0.6	-14	-12	nt	9
O=C1CC(c2ccsc2)Sc2ccccc2N1 (stereo not given)	-2	-0.8	-14	3	-1	-2
COC(=O)c1ccc(COC(=O)CCC(=O)c2cccs2)cc1	-18	-0.2	15	-6	7	13
CC1CC(C)(C)NC(=S)N1CC(=O)NCc1ccc(F)cc1 (stereo not given)	0	0.3	8	-5	1	12
CCC1CCCCN1C(=O)CSc1nc2c(c(=O)n1C)SC(C)C2 (stereo not given)	-24	2.0	0	14	-1	-8
COc1ccccc1C1(CC(=O)N2CCOCC2)CCOC(C(C)C)C1 (stereo not given)	34	-0.1	2	-9	3	-22
COc1ccc(/C=C(/C#N)C(=O)Nc2cccc([N+](=O)[O-])c2)cc1C(=O)O	-13	1.1	-16	-12	-11	5
CCCCN(Cc1cc2ccccc2[nH]c1=O)C(=O)c1ccccn1	10	0.8	4	0	-1	-6
O=Cc1ccc(C(=O)OCC(=O)NCCC2=CCCCC2)cc1	33	-0.4	2	-10	0	-15
C=CC1CN(C(=O)OCC(Cl)(Cl)Cl)C2CC3c4ccc(OC)cc4NC3C3CC1C2CO3 (stereo not given)	nt	nt	-15	-32	-14	nt
CCOC(=O)Cc1nc(-c2ccccc2)n[nH]1	6	0.0	9	-4	0	-6
CC12CCC(=O)N1C(C(=O)NCc1ccccc1Cl)CS2 (stereo not given)	3	-0.1	-4	-40	-1	-1
Continued:
SMILES	TRPML1 inh	TRPML1 agonist	Six1-Eya2 inh	D2 potentiator	CtBP-E1A inh	TRPV1 PAM
CCOc1ccc(C2NC(=O)NC(C)=C2C(=O)OC)cc1C (stereo not given)	-2	1.1	-1	-8	-13	6
COc1ccc(C(=O)N2CCNC(=O)C2CC(=O)Nc2ccc(C)cc2)cc1 (stereo not given)	?	-0.6	1	-1	1	5
Cc1cc(C)nc(SCC(=O)NN)n1	2	0.8	11	-1	-8	-13
CCOC(=O)c1nc2c(ccc3ccccc32)cc1C	-2	-0.1	33	-3	29	6
CS(=O)(=O)N1CCN(c2ccc(C(=O)NC3C4CC5CC(C4)CC3C5)cc2[N+](=O)[O-])CC1 (stereo not given)	17	0.0	-6	-6	-14	-2
O=C(OCc1ccccc1)N1CCC2CC1c1ccc(N3CCOCC3)cc12 (stereo not given)	-14	0.1	?	2	-6	nt
COc1cccc(C(=O)Nc2cccc(-c3nnc(-c4ccco4)o3)c2)c1	-10	0.3	?	11	?	-3
CC1=C(C(=O)Nc2ccccc2F)C(c2ccsc2)C2=C(CC(C)(C)CC2=O)N1 (stereo not given)	-11	0.5	5	-7	nt	3
COc1cc2ccc(C(C)=NNC(N)=S)cc2cc1OC	3	-0.5	?	-17	-26	nt
N#Cc1ccc(S(=O)(=O)N2CCN(CC(=O)NCC3(N4CCOCC4)CCCCC3)CC2)cc1	4	-0.2	4	2	3	4
CCCN(CCC)C(=O)Nc1cc(Cl)ccc1OC	-2	0.2	1	-6	15	-15
CCCCN1C(=O)C(O)(CC(=O)c2ccccc2OC)c2ccccc21 (stereo not given)	-8	0.2	-2	-3	0	-15
Cc1ccccc1Nc1cc(=O)oc2ccccc12	-4	-1.1	2	-11	3	0
Clc1ccc(CON/C=N/c2ncnc3sccc23)cc1	2	0.0	13	-5	10	-12
O=S(=O)(Nc1nc2ccccc2nc1NCc1ccco1)c1ccc(F)cc1	64	0.2	3	-10	2	12
CCn1cc(C(=O)OCC(=O)NCc2ccccc2Cl)c(=O)c2ccc(C)nc21	20	0.8	3	2	-9	-11
COc1ccc(CNC(=O)CN(Cc2ccc(F)cc2)C(=O)c2csnn2)cc1	-19	-0.9	2	-3	7	-4
Cc1c(N=C2NN=C(c3c[nH]c4ccccc34)CS2)c(=O)n(-c2ccccc2)n1C	-12	0.2	-1	-17	-7	4
CCN(CCCNC(=O)CN(C)S(=O)(=O)c1cccc2nsnc12)c1ccccc1	-6	-0.1	-25	-5	-5	-6
COC(=O)C1=CN(c2ccc(Cl)cc2)C=C(C(=O)OC)C1c1ccc([N+](=O)[O-])cc1	4	-0.5	-20	3	-18	8
Cc1ccc(-c2ccccc2NC(=O)C2C3C=CC(C3)C2C(=O)O)o1 (stereo not given)	9	0.1	-2	-3	-2	10
O=C(Cc1ccc(S(=O)(=O)N2CCOCC2)s1)N1CCN(S(=O)(=O)c2cccc(F)c2)CC1	9	1.5	0	-1	-8	nt
O=C(COC(=O)/C=C/c1ccccc1)Nc1cc(C(F)(F)F)ccc1N1CCOCC1	18	3.4	-3	-9	6	1
CCOC(=O)C1Cn2c(nc3c(c2=O)C(C)(C)Cc2ccccc2-3)S1 (stereo not given)	-5	0.5	1	-12	-3	?
COCC(=O)Nc1cc(C)cn(Cc2ccccc2Cl)c1=O	22	-0.7	-21	-8	-5	-6
The listing continues.
SMILES	TRPML1 inh	TRPML1 agonist	Six1-Eya2 inh	D2 potentiator	CtBP-E1A inh	TRPV1 PAM
Cc1ccccc1NC(=O)CCN1C(=O)c2ccccc2C1=O	-9	0.0	23	-45	0	-14
Cc1oc2c(cc(NS(=O)(=O)c3ccc(C(C)C)cc3)c3ccccc32)c1C(=O)O	3&-2	3.0&2.2	-3	8	-1	23
CCc1ccccc1NC(=O)CNC(=O)c1ccc(OCc2cn3ccccc3n2)cc1	15	2.0	1	-6	0	nt
O=[N+]([O-])c1ccc(NCc2ccccn2)nc1	5	-0.6	-2	-5	10	-3
CNCc1c(OCc2ccc(F)cc2)ccc2ccccc12	6	-0.3	-5	-7	-1	3
CC1(C(=O)NCc2ccccc2Br)CCN1Cc1csc2ccccc12 (stereo not given)	nt	0.1	-2	-13	2	nt
O=C(CSc1nnnn1-c1cccc2ccccc12)Nc1ccc(C(=O)O)cc1	nt	nt	6	5	nt	22
COc1c(C)cc(C(=O)C2CCCN(C(=O)c3cc(C)nc(C)n3)C2)cc1C (stereo not given)	7	0.1	12	2	9	-2
c1ccc2c(c1)ccc1ncccc12	2	0.4	-3	-1	-20	?
Cc1cc(F)ccc1NCc1cc2c(cc1[N+](=O)[O-])OCO2	1	1.5	?	-8	?	12
CCCC(=O)NNC(=O)Nc1ccccc1	18	0.0	6	-1	1	13
COc1ccc(C(C)NC(=O)C23CC4CC(CC(C4)C2)C3)cc1OC (stereo not given)	15	-0.2	2	-4	-3	-17
CC1CCCCC1NC(=O)CSc1nncn1N (stereo not given)	0	0.3	4	-3	nt	2
O=C(CN1C2CCCC1CC(NC(=O)c1ccco1)C2)Nc1ccccc1C(F)(F)F (stereo not given)	-5	-0.8	2	-11	3	-7
O=C(NC(=S)Nc1ccccc1Cl)c1ccco1	-6	0.7	3	-9	-1	0
CCOc1nc(N2CCOCC2)nc(N2CCOCC2)n1	-2	1.2	-1	1	0	-19
COc1ccc(C(=O)NC(=S)Nc2ccc(CN3CCOCC3)cc2)cc1	1	-0.5	-7	-13	-9	11
O=C1c2ccccc2C(=O)N1CCc1csc(-c2cccc(Cl)c2)n1	5	1.7	18	-1	30	9
c1ccc(-c2c3ccccc3nc3[nH]c4ccccc4c23)cc1	-12	-0.2	26	-5	nt	20
CCOC(=O)c1sc(=S)n(-c2ccccc2)c1C	-6	0.6	7	-10	1	-2
Cc1ccc(C(=O)Cn2c(C(=O)/C=C/c3ccccc3)nc3ccccc32)cc1	22	1.2	6	-3	-4	-3
COC(=O)c1c(C(=O)OC)c2cc(C(=O)c3ccccc3)ccn2c1Cl	11	2.0	0	-13	1	-15
CCN(CC)c1ccc(NC(=O)Nc2ccc(C(C)=O)cc2)cc1	-7	-0.1	-15	-3	-2	4
O=C(O)c1ccc(COc2ccccc2Cl)cc1	-8	0.4	2	-14	2	-13

4 entries from above in another layout.
Molecule,TRPML1 inh,TRPML1 agonist,Six1-Eya2 inh,D2 potentiator,CtBP-E1A inh,TRPV1 PAM
CC1CCCCC1NC(=O)CSc1nncn1N (stereo not given),0,0.3,4,-3,nt,2
O=C(CN1C2CCCC1CC(NC(=O)c1ccco1)C2)Nc1ccccc1C(F)(F)F (stereo not given),-5,-0.8,2,-11,3,-7
O=C(NC(=S)Nc1ccccc1Cl)c1ccco1,-6,0.7,3,-9,-1,0
CCOc1nc(N2CCOCC2)nc(N2CCOCC2)n1,-2,1.2,-1,1,0,-19

Entries of single compounds from above. Screens in order: TRPML1 inh	TRPML1 agonist	Six1-Eya2 inh	D2 potentiator	CtBP-E1A inh	TRPV1 PAM
Results for CCN(CC)c1ccc(NC(=O)Nc2ccc(C(C)=O)cc2)cc1 → -7	-0.1	-15	-3	-2	4
Results for O=C(CN1C2CCCC1CC(NC(=O)c1ccco1)C2)Nc1ccccc1C(F)(F)F (stereo not given) → -5	-0.8	2	-11	3	-7
Results for c1ccc2c(c1)ccc1ncccc12 → 2	0.4	-3	-1	-20	?
